Screens as filed in PubChem BioAssay.
KCNQ2 enhance: potentiators of rat KCNQ2 potassium channel; AID 2239, 2010; B-score at 10 µM; 310,000 compounds, 0.54% hits; Potassium voltage-gated channel subfamily KQT member 2 (Rattus norvegicus), O88943; CHO-K1 KCNQ2, FluxOR thallium flux fluorescence; hits give high values;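 active = fluorescence ratio B-score at least 3 SD of library B-scores, with initial fluorescence B-score within 3 SD, cut at about 5.3 in these data; same plate scores as AID 2156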;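 note: B-score of peak minus minimum over baseline fluorescence ratio after K+ and Tl+ stimulus; positive B-score means potentiation of KCNQ2 with more thallium influx and brighter signal; only the inactives scoring about 0 or higher are listed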
Target sequence (O88943 whole entry, looked up): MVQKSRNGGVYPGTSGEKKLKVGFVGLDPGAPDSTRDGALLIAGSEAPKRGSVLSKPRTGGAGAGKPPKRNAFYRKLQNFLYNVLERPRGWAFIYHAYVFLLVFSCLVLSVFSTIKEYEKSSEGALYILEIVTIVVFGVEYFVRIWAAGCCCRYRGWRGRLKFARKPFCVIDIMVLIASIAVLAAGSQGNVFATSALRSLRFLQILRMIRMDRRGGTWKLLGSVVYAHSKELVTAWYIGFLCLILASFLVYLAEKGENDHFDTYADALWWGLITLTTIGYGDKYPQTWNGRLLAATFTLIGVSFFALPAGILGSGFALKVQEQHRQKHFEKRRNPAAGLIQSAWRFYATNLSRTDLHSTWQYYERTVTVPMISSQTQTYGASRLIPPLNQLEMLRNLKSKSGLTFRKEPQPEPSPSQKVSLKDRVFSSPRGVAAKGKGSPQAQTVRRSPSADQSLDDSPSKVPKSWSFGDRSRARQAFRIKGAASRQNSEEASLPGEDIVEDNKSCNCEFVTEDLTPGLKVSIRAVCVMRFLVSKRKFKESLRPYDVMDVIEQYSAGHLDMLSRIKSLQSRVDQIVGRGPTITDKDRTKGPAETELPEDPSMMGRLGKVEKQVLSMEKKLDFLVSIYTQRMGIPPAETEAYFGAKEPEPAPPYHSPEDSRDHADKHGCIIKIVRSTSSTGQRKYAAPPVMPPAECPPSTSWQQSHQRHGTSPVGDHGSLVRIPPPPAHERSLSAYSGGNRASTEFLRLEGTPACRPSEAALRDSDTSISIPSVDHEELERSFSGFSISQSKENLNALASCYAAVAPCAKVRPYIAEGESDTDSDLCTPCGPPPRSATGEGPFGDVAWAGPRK
KCNQ2 enhance baseline: recorded beside KCNQ2 enhance, whose call it bears; B-score; compound at 10 µM; measured here: initial fluorescence intensity artifact check;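 brightness before thallium and not channel activity; 0 = typical well and far values either way flag optical interference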
* hit, by the source's call. A portion of the library; count on the stated rates, not on these rows.

Each structure is followed by: KCNQ2 enhance	KCNQ2 enhance baseline
CCOc1ccc(NC(=O)CCN2CCN(c3ccccc3)CC2)cc1
 : 0.56	-0.34
Cc1noc(/C=C/N(C)C)c1S(=O)(=O)N1CCCC(C(=O)NCc2ccco2)C1 (stereo not given)
 : 0.18	-0.1
COC(=O)C1=C(C)NC(C)=C(C(=O)OC)C1c1cc2ccc(C)cc2[nH]c1=O
 : 0.52	0.82
O=[N+]([O-])c1ccccc1OCCNCc1ccccc1
 : 0.54	-1.5
COc1ccc(NC(=O)NCCN2CCN(c3cc(OC)ccc3OC)CC2)cc1
 : 0.02	0.77
O=C1CCN(C(=O)Nc2ccccc2)N1
 : 1.1	-0.08
CCOC(=O)c1ccc(NC(=O)CSc2nnc(C)n2-c2ccccc2)cc1
 : 0.01	1.4
C=CCn1c(-c2ccncc2)n[nH]c1=S
 : 0.16	0.15
CN(C)C(=O)N1CCN(C(=O)N(C)C)CC1
 : 0.03	-1.4
O=C(CN1CCOCC1)NCCNC(=O)CN1CCOCC1
 : 0.56	0.06
CCOC(=O)CSc1ncnc2c1cnn2-c1ccccc1
 : 0.05	-0.28
Cc1cccc(C(C)C)c1NC(=O)CSc1nncn1C
 : 0.03	-0.05
O=C(CSc1nc2c(oc3ccccc32)c(=O)n1CC1CCCO1)NCc1ccccc1 (stereo not given)
 : 0.76	-0.01
COc1ccc([N+](=O)[O-])cc1NC(=O)COC(=O)c1ccccn1
 : 0.91	0.54
Cc1c(C(C)C)c(=O)n(-c2ccc(S(=O)(=O)NCc3ccccc3)cc2)n1C
 : 1.1	0.12
Cc1ccc(S(=O)(=O)Cc2ccc(C(=O)N3CCN(c4ccccn4)CC3)o2)cc1
 : 1.1	-1.1
CCNc1nc(NCC)n2c(SCC(=O)c3ccc(C(C)C)cc3)nnc2n1
 : 0.11	-1.6
Cc1ccsc1C(=O)N(c1nc2ccccc2s1)c1c(C)cccc1C
 : 0.41	1.6
CCn1c(SCC(=O)N/N=C/c2cc(OC)c(OC)c(OC)c2)nc2ccccc21
 : 0.61	-2.5
O=C(NNS(=O)(=O)c1ccc(F)cc1)c1ccccc1F
 : 1.1	-2.2
COc1ccc(NC(=O)N(CCCN(C)C)Cc2cc3cc(OC)ccc3[nH]c2=O)cc1
 : 0.47	-0.01
COc1ccc(CNC(=O)C(c2ccco2)N(C(=O)c2ccccn2)c2ccccc2)cc1 (stereo not given)
 : 0.74	-0.84
Cc1ccc(/C=N/Nc2nnc(Cc3ccccc3)c(=O)[nH]2)o1
 : 0.3	-2.3
O=C(Nc1nc(-c2cccc3ccccc23)cs1)c1ccc2c(c1)S(=O)(=O)c1ccccc1C2=O
 : 1.9	0.95
CCC1S/C(=C(\C#N)C(N)=O)N(c2ccc(F)cc2)C1=O (stereo not given)
 : 0.41	-0.27
CCOc1ccc(NC(=O)CSc2ccc(-c3ccco3)nn2)cc1
 : 0.68	0.34
CCC(=O)N(Cc1ccc(C)cc1)Cc1cc2cc3c(cc2[nH]c1=O)OCO3
 : 0.21	-0.3
O=C(CSc1ccc(Cl)cc1)NCc1ccco1
 : 0.37	0.41
COc1cc(C2OCC3C(c4ccc(OC5OC(CO)C(O)C(O)C5O)c(OC)c4)OCC23)ccc1O (stereo not given)
 : 0.1	-1.4
Cc1ccc(NC(=O)CC2S/C(=N/N=C/c3c[nH]c4ccccc34)NC2=O)cc1 (stereo not given)
 : 0.29	-2.6
N#Cc1ccsc1NC(=O)c1cccc(-n2cnnn2)c1
 : 0.34	0.93
COc1ccc(N(C(C)=O)S(=O)(=O)c2cccs2)cc1
 : 0.41	0.33
O=C(CN1CCNCC1)NCCSc1ccc(Cl)cc1
 : 0.25	1.5
CCn1cc(C(=O)N2CCN(c3ccccn3)CC2)c(=O)c2cc(S(=O)(=O)N(C)C3CCCCC3)ccc21
 : 0.51	-0.25
O=C(N/N=C/C(Br)=C/c1ccccc1)c1cc(-c2ccco2)[nH]n1
 : 0.55	0.41
COc1ccccc1NS(=O)(=O)c1ccc(NN=C2CCCC2)c([N+](=O)[O-])c1
 : 0.69	-0.05
O=C(CSc1ccc(Cl)cc1)Nc1ccc(N2CCN(C(=O)c3ccc(Cl)cc3)CC2)cc1
 : 0.1	0.72
Cc1ccc(-c2nnc(SCC(=O)Nc3ccc(N4CCOCC4)cc3)o2)cc1
 : 1.6	-0.58
COC(=O)CCc1nc2ccccc2nc1OC
 : 0.93	-1.1
CCO[C@@H]1OC(C(=O)N2CCN(Cc3ccc4c(c3)OCO4)CC2)=C[C@H](C2CC2)[C@H]1CCCO
 : 0.12	-0.02
COc1cc(NC(=O)Cc2nn(C)c(=O)c3ccccc23)cc(OC)c1OC
 : 0.67	-0.83
CC(C)(C)c1csc(N/N=C/c2cccnc2)n1
 : 1.5	-1.4
O=c1[nH]nc(CNc2ccc(Cl)cc2Cl)c2ccccc12
 : 1.2	-0.58
O=C(CNC(=O)c1ccccc1Br)N/N=C/c1cccs1
 : 0.85	-0.89
O=C(NNC(=O)c1ccccc1Br)c1ccc(SCC2CCCO2)c([N+](=O)[O-])c1 (stereo not given)
 : 0.23	0.05
COc1ccc(C2CC(c3ccccc3)=NN2C(=O)CCC(=O)O)cc1 (stereo not given)
 : 1	0.52
CCC(=O)Nc1nnc(SCC(=O)NCC2CCCO2)s1 (stereo not given)
 : 0.34	0.6
COc1cccc(C2(O)CCN(C(=O)C(C)C)CC2)c1
 : 0.48	2.1
Brc1cccc(OCCCNC2CCCC2)c1
 : 1.5	-0.34
CCSc1nnc2nc(C)cc(C)n12
 : 1.6	-0.75
O=S(=O)(c1cc(F)ccc1F)N1CCC2(CC1)OCCN2S(=O)(=O)c1cccs1
 : 0.04	-0.16
CCOC(=O)C1=NN(C(=O)Cc2ccccc2)C(O)(C(C)(C)C)C1 (stereo not given)
 : 1.4	0.44
CCn1cc(C(=S)N2CCC(C(N)=O)CC2)c2ccccc21
 : 1.1	-2.1
CCOc1cc2c(C#N)c(N3CCOCC3)nc(N)c2c(N)n1
 : 1.8	-1.1
COc1ccc(OCc2nnc(NC(=O)Nc3ccc(F)cc3)s2)cc1
 : 0.86	1.4
CC1CN(C(=O)C(C)N2C(=O)c3ccccc3C2=O)CC(C)O1 (stereo not given)
 : 0.27	0.44
CC(=O)/C=C/n1c(=S)oc2ccccc21
 : 5.4*	0*
C/C(=N\NC(=O)CSc1nc2ccccc2[nH]1)c1ccncc1
 : 1.2	0.23
COc1cccc(S(=O)(=O)NCc2ccc(C(=O)Nc3ccc(Cl)c(Cl)c3)cc2)c1
 : 0.89	-0.27
Clc1cncc(Cl)c1N/N=C/c1ccncc1
 : 0.21	-2.4

(next part)
molecule | KCNQ2 enhance | KCNQ2 enhance baseline
CN(C)/C=C/C(=O)/C=C/c1cn(-c2ncc(C(F)(F)F)cc2Cl)c2ccccc12 | 1 | -1
COc1ccccc1NC(=S)NCc1ccccc1 | 0.86 | 0.01
CNc1nc(N/N=C/c2ccc([N+](=O)[O-])cc2)nc(Nc2ccccc2)n1 | 0.91 | 0
c1cnn(-c2cc(N3CCOCC3)ncn2)c1 | 0.72 | 0.79
CCCCOc1ccc(C(=O)N(Cc2ccco2)C2CCS(=O)(=O)C2)cc1 (stereo not given) | 1.5 | 0.63
O=C(NCc1ccccc1)c1n[nH]nc1-c1ccccc1O | 0.81 | -0.4
O=C(COC(=O)c1nc(Cl)ccc1Cl)c1ccc[nH]1 | 0.96 | -1.5
COC1=C(Nc2ccccc2)C(=O)c2ccccc2C1=O | 0.01 | 0.29
O=C(Nc1nnc(S(=O)(=O)N2CCOCC2)s1)c1ccccc1Br | 2 | 0
COC(=O)C1=C(C)NC(C)=C(C(=O)OC)C1C(=O)OC1CCCCC1=O (stereo not given) | 1.7 | -0.47
O=c1cc(-c2ccccc2)nc2nc(COc3ccccc3)[nH]n12 | 0.46 | 1.1
C=CCN1C(=O)C(CC(=O)Nc2ccccc2F)S/C1=N\c1nccs1 (stereo not given) | 0.68 | -0.01
O=[N+]([O-])c1ccc(NCCNS(=O)(=O)c2ccccc2)cc1 | 0.67 | 1.4
NC(=O)NC(CC(=O)NCCc1ccc(S(N)(=O)=O)cc1)c1ccc(Cl)cc1 (stereo not given) | 0.5 | 0.95
O=C(Nc1nc(-c2ccc(-c3ccccc3)cc2)cs1)c1cnccn1 | 0.21 | 0.37
CCN(CC)C(=O)Oc1ccc(OC(=O)N(CC)CC)cc1 | 0.66 | 0.1
C#CCn1c(O)c(N=NC(=O)CNC(=O)c2cccnc2)c2ccccc21 | 1.9 | -0.48
CCOC(=O)N1CCC(N2C(=O)c3cc(C(=O)NC4CCCCC4)ccc3C2O)CC1 (stereo not given) | 1.1 | -0.69
CCN(CC)C(=O)C1CCCN(Cc2ccc(OC)c(C)c2C)C1 (stereo not given) | 0.33 | -1.3
O=C(Nc1ccc2nc(-c3ccc(Br)o3)[nH]c2c1)c1cccs1 | 3.1 | -1.6
CCOC(=O)CC(=O)CSc1nc(C)cc(C)c1C#N | 0.04 | -1.1
CCn1c(CSc2nc3ccccc3s2)nnc1SCC(=O)NCC(=O)OC | 0.05 | -0.29
COc1ccc(/C=C/C(=O)OCC(=O)Nc2cccc(C(C)=O)c2)cc1 | 0.75 | -1.2
CCNc1nc2nc3ccc(C)cn3c(=O)c2cc1C(=O)NCC1CCCO1 (stereo not given) | 1.5 | -0.89
CC(=O)c1ccc(Nc2nc(-c3cccnc3)cs2)cc1 | 0.97 | -0.97

Continued; it opens with the 7 that closed the last part.
molecule | KCNQ2 enhance | KCNQ2 enhance baseline
CCN(CC)C(=O)C1CCCN(Cc2ccc(OC)c(C)c2C)C1 (stereo not given) | 0.33 | -1.3
O=C(Nc1ccc2nc(-c3ccc(Br)o3)[nH]c2c1)c1cccs1 | 3.1 | -1.6
CCOC(=O)CC(=O)CSc1nc(C)cc(C)c1C#N | 0.04 | -1.1
CCn1c(CSc2nc3ccccc3s2)nnc1SCC(=O)NCC(=O)OC | 0.05 | -0.29
COc1ccc(/C=C/C(=O)OCC(=O)Nc2cccc(C(C)=O)c2)cc1 | 0.75 | -1.2
CCNc1nc2nc3ccc(C)cn3c(=O)c2cc1C(=O)NCC1CCCO1 (stereo not given) | 1.5 | -0.89
CC(=O)c1ccc(Nc2nc(-c3cccnc3)cs2)cc1 | 0.97 | -0.97
COc1ccc(C(=O)NCc2nnc(SCC(=O)NCc3ccco3)o2)cc1OC | 0.45 | 0.43
Nc1cc(N)nc(SCCc2ccccc2)n1 | 0.31 | -0.09
O=C(CCC1CCCC1)N1CCN(C(=O)c2cccnc2)CC1 | 1.2 | 1.7
NC(=O)C1CCN(c2ccc(C(F)(F)F)cn2)CC1 | 0.25 | -1.9
CCSc1nnc(NC(=O)c2cc(C)nc3ccccc23)s1 | 1.1 | -0.25
COC(=O)CN(c1ccccc1F)S(=O)(=O)c1ccccc1 | 1.5 | 0.67
CCN(CC1COc2ccccc2O1)C(=S)NCCCN(C)C (stereo not given) | 1.1 | -0.34
COc1cccc(C(=O)c2c[nH]c(C(=O)NCc3cccnc3)c2)c1 | 0.27 | 0.42
O=C(O)/C=C/C(=O)Nc1ccc(OC(F)(F)F)cc1Br | 0.14 | 3.3
COc1ccc(C(=O)N2CCOC2CNC(=O)C(=O)NCCc2ccc(OC)c(OC)c2)cc1 (stereo not given) | 1.2 | -0.69
O=C(CSc1nnc(SCc2ccccc2)s1)N/N=C/C=C/c1ccco1 | 0.11 | -0.89
COc1cccc(OC)c1OCCNC(C)(C)C | 1.3 | 1.8
COc1ccc(C2=NN(C(=O)CCC(=O)O)C(c3ccc([N+](=O)[O-])cc3)C2)cc1 (stereo not given) | 0.21 | -0.09
CCN(C(=O)COC(=O)c1cc(-c2cccc3ccccc23)nc2ccccc12)C1CCS(=O)(=O)C1 (stereo not given) | 1.2 | -1.8
CCOc1ccc(C2CC(c3ccccc3C)n3ncnc3N2)cc1 (stereo not given) | 0.69 | -0.14
S=c1[nH]nc(-c2ccc(Cl)cc2)n1/N=C/c1cccs1 | 1.1 | 0.2
COc1ccccc1C(=O)Nc1nc2nc(-c3ccccc3)cc(=O)n2[nH]1 | 0.55 | 1.3
CCC(=O)Nc1c(C(=O)Nc2cccc(OC)c2)oc2ccccc12 | 0.36 | -0.15
COC(=O)c1cc(=O)cc(C(=O)OC)o1 | 0.42 | 0.94
C=CCc1cc(C)ccc1OCCCn1ccnc1 | 0.81 | -0.28
Cc1nc(SCC(=O)N2CCN(c3ccccc3)CC2)c2oc3ccccc3c2n1 | 1.5 | 1.1
Cc1ccc(S(=O)(=O)CC(=O)N2CCN(c3ccccc3F)CC2)cc1 | 0.06 | 4.5
O=c1[nH]c2ccc(S(=O)(=O)NCc3ccccc3)cc2[nH]1 | 0.54 | 2.6
O=C(c1ccco1)N1CCN(/C(=N/S(=O)(=O)c2cccs2)c2ccccc2Cl)CC1 | 0.02 | 0.93
CN(C(=O)COC(=O)CSc1ccc(C(N)=O)cc1[N+](=O)[O-])C1CCS(=O)(=O)C1 (stereo not given) | 0.53 | 0.3
Cc1oc(-c2cccc(Cl)c2)nc1CSc1nc2c(c(=O)[nH]1)CCC2 | 1.4 | -0.5
CCc1nnc(NC(=O)Cc2cc(OC)c(OC)c(OC)c2)s1 | 1.4 | 1.3
COc1ccc(OC)c(NC(=O)C2=C(C)Nc3ncnn3C2c2cccs2)c1 (stereo not given) | 0.18 | -0.16
Cc1nonc1CN(C)C(=O)CC1C(=O)NCCN1Cc1c(F)cccc1Cl (stereo not given) | 0.77 | -0.95
Cc1cc(C(=O)N(C)CC(=O)Nc2cccc(F)c2)no1 | 0.27 | 1.8
Cn1c2ccc(F)cc2c2nnc(SCC(=O)Nc3cccc(O)c3)nc21 | 1 | 0.19
CCN(CC)S(=O)(=O)c1cccc(NC(=O)COC(=O)/C=C/c2ccco2)c1 | 1.7 | -0.11
CN(C)c1ccnc2sc(C(N)=O)c(N)c12 | 1.4 | 0.9
